PV pol inh: poliovirus RdRp elongation inhibitors, primary screen, biochemical, fluorescence polarization, total intensity; poliovirus polymerase elongation; stronger effect = lower value; hit rate 0.66% among 150,000; % elongation, % (compound at 16.7 µg/mL); Genome polyprotein (Poliovirus type 1 (strain Mahoney)), P03300; in the data active = % elongation below about 90%; also: some results filed as inactive read as strong as hits
Target sequence (P03300 1749-2209 limits assumed): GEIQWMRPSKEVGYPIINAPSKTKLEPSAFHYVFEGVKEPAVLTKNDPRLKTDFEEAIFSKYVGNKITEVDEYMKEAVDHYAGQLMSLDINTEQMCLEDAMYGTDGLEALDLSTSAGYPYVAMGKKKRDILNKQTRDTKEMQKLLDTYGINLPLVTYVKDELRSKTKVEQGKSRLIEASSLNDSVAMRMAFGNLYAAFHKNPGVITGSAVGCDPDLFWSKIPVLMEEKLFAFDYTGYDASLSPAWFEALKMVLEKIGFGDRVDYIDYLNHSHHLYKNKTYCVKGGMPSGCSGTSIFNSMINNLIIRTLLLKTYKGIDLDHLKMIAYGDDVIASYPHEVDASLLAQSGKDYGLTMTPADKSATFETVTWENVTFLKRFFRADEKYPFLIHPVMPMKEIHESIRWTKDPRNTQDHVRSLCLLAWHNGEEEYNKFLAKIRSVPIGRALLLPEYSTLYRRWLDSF
Mtb MenB inh: M. tuberculosis MenB inhibitors, primary screen, biochemical, absorbance; MenB enzyme assay, absorbance read-out; some hits fall short of the stated cut; inhibition, %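 (about 12 µg/mL by stock and volumes)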; 1,4-dihydroxy-2-naphthoyl-CoA synthase (Mycobacterium tuberculosis (strain ATCC 25618 / …; hit rate 0.43% among 100,000; AID 540299, 2011;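 active = mean of two replicates above 30%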;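 also: 0% = no compound and 100% = wells with inactive enzyme; the first replicate is given; strong numbers were not always called active; inactives centre near -10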
Mtb MbtI inh: MbtI salicylate synthase inhibitors, primary screen, biochemical, fluorescence intensity; P9WFX0; purified MbtI enzyme, fluorescence intensity read-out; inhibition, %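 (about 17 µg/mL by stock and volumes)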; hit rate 0.89% among 100,000; AID 493033, 2011;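 active = above 50% in both replicates, above 80% if mildly self-fluorescent; inactive = the rest, strongly fluorescent compounds included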;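 also: 0% = mean of negative and 100% = mean of positive controls; one replicate is shown; some compounds called inactive have numbers as strong as hits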
Target sequence (P9WFX0 whole entry, looked up): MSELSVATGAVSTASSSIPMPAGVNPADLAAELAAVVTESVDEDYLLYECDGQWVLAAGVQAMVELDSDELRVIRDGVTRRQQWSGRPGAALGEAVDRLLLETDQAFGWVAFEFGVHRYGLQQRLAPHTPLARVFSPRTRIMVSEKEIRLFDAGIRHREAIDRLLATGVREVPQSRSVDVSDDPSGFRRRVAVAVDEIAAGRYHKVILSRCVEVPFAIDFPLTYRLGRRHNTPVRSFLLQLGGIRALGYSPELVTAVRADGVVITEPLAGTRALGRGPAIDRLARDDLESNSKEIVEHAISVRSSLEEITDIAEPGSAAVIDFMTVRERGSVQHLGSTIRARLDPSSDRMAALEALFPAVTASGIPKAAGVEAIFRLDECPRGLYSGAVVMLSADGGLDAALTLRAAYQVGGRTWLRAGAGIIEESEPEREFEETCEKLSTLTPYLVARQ
PV pol inh intensity: also measured in PV pol inh; calls as there; % elongation; measured here: total intensity read-out; formula for this scale not given here;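 total fluorescence in place of polarization; lower means less elongation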
An asterisk follows results filed as active; . = no result given.

cpd	SMILES	Mtb MenB inh	Mtb MbtI inh	PV pol inh	PV pol inh intensity
1	Clc1ss/c(=N\c2ccccn2)c1Cl	-19	.	87*	93*
2	NC(=S)NC(=O)c1ccc(Cl)cc1	-66	18	108	99
3	CC(C)CCn1c(=O)c2sccc2n2c(CCCC(=O)O)nnc12	-22	-13	103	105
4	O=C(O)C(CS(=O)(=O)Cc1ccccc1)N1Cc2ccccc2C1=O (stereo unspecified)	-7	-3	102	104
5	O=C(c1c(F)cccc1F)N1CCCC1	19	-4	102	102
6	CSc1nc(NCCO)c(C#N)c(-c2ccc(C)cc2)n1	-42	-3	104	98
7	CCC1(c2ccccc2)NC(=O)N(Cc2ccccc2)C1=O (stereo unspecified)	-29	-4	107	107
8	CN(C)CCCNc1ncnc2c1oc1ccccc12	12	26	95	97
9	O=C1c2ccccc2-c2nn(C(=O)C3CCN(S(=O)(=O)c4cccs4)CC3)c3cccc1c23	-26	-6	104	108
10	CC(N)(Cc1ccc2c(c1)OCO2)C(=O)O (stereo unspecified)	-10	.	105	101
11	Cc1ccc(S(=O)(=O)N2CCC(NC(=O)c3ccccc3)CC2)cc1	-38	-9	103	105
12	N#CC(C#N)=CNc1ccccc1C(=O)NCCCn1ccnc1	-7	-16	102	99
13	CC1=C(C(=O)N(C)C2CCCCC2)C2(CCC(C)CC2)OC1=O (stereo unspecified)	-21	5	103	93
14	CN1C(=O)CC(N2CCN(C/C=C/c3ccccc3)CC2)C1=O (stereo unspecified)	-19	-16	102	102
15	O=C(COC(=O)C1Cc2ccccc2CN1C(=O)c1ccco1)NC12CC3CC(CC(C3)C1)C2 (stereo unspecified)	-14	-11	99	100

Record cards (already shown). Order of screens: Mtb MenB inh, Mtb MbtI inh, PV pol inh, PV pol inh intensity
`CSc1nc(NCCO)c(C#N)c(-c2ccc(C)cc2)n1` as listed: -42, -3, 104, 98
`CN1C(=O)CC(N2CCN(C/C=C/c3ccccc3)CC2)C1=O` (stereo unspecified) as listed: -19, -16, 102, 102
`O=C(O)C(CS(=O)(=O)Cc1ccccc1)N1Cc2ccccc2C1=O` (stereo unspecified) as listed: -7, -3, 102, 104
`CC1=C(C(=O)N(C)C2CCCCC2)C2(CCC(C)CC2)OC1=O` (stereo unspecified) as listed: -21, 5, 103, 93
`O=C(c1c(F)cccc1F)N1CCCC1` as listed: 19, -4, 102, 102

(further entries)
cpd	SMILES	Mtb MenB inh	Mtb MbtI inh	PV pol inh	PV pol inh intensity
16	CCC1CCCCN1C(=O)c1cnn(-c2ccc(F)cc2)c1-n1cccc1 (stereo unspecified)	-10	-9	102	101
17	O=C1CN(C(=O)c2ccc3c(c2)OCO3)C(c2ccccc2)c2cc(F)ccc2N1 (stereo unspecified)	21	-3	101	100
18	CCc1ccc2nc(NC(=O)c3cc(N4CCOCC4)ccn3)sc2c1	-60	12	113	124
19	Cc1ccc(NC(=O)C(C)Nc2cccc(-c3nnc4n3CCCCC4)c2)cc1 (stereo unspecified)	-15	29	105	110
20	CCCn1c(SCC(=O)N2CCN(S(=O)(=O)c3ccc(Cl)cc3)CC2)n[nH]c1=O	1	-18	102	103
21	CN(CC(=O)Nc1ccc(S(=O)(=O)N2CCCC2)cc1)CC(=O)Nc1ccc(F)c(F)c1F	2	-18	103	111
22	O=C(NC1CC1)c1ccc2c(c1)N(Cc1ccccc1)C(=O)c1ccccc1S2	-24	-2	99	100
23	CCCc1cc(=O)oc2c(C)c(OC(C)C(=O)O)ccc12 (stereo unspecified)	-9	104	104	108
24	N#C/C(=C(\O)c1ccccc1)c1nc2ccccc2c(=O)[nH]1	-6	.	109	109
25	COc1ccc(NCc2cc(=O)n3c(-c4ccccc4)csc3n2)cc1	-19	-8	118	110
26	Cc1nc2cc(-c3ccccc3)nn2c(C)c1CC(=O)NC1CCCC1	2	27	104	107
27	CC(C)CC(=O)Nc1cc(C(F)(F)F)cc(C(F)(F)F)c1	-26	-15	100	102
28	O=C(NC1=NCCS1)c1cccc(S(=O)(=O)N2CCCc3ccccc32)c1	11	-23	97	99
29	COc1ccccc1C(=O)NC(=S)c1c(C)nc2sccn12	-65	100	104	96
30	Cc1cn(CCC#N)nc1C=Nc1ccc(O)cc1	-4	101	105	106
31	CC1CCCC(NC(=O)C2CCC(Cn3c(=O)[nH]c4ccccc4c3=O)CC2)C1C (stereo unspecified)	-1	10	100	107
32	CC(CCc1ccccc1)NC(C)C(O)c1ccc(O)cc1 (stereo unspecified)	0	-12	100	101
33	CSC1=NCCN1C(=O)Cc1cccs1	-15	4	102	109
34	Cc1ccc(Cn2nnc(-c3ccccc3C)n2)cc1	-32	-13	103	103
35	CNS(=O)(=O)c1cccc(C(=O)OCC(N)=O)c1	3	-2	108	110
36	CC(C)Oc1nsnc1N1CCOCC1	-4	4	101	103
37	CCCc1c(C)[nH]c2ccc(C(=O)O)cc2c1=S	-141	54	96	99
38	Cc1nnc(SCCCN2C(=O)c3ccccc3C2=O)o1	29	-1	100	101
39	Cc1nn(-c2cccc(C(F)(F)F)c2)c(Cl)c1/C=N/NC(N)=O	-33	-8	104	109
40	Cc1cc(C)c(C)c(S(=O)(=O)N2CCN(C(=O)CCN3C(=O)C4CC=CCC4C3=O)CC2)c1C (stereo unspecified)	-28	4	.	.
41	Cc1ccccc1OCc1nnc(-c2ccccc2)o1	-10	-7	101	105
42	Cc1nc(Nc2ccc(Cl)cc2Cl)c(C#N)c(N(C)C)n1	-11	13	105	106
43	Cc1ccc(C)c(N2N=C(C(=O)Nc3ccc(N4CCOCC4)cc3)CCC2=O)c1	-32	8	99	100
44	CCc1ccccc1NC(=O)C(CC)n1nc(C)n2c(cc3cc(C)ccc32)c1=O (stereo unspecified)	-32	2	105	106
45	CN(C)C(=O)C(Sc1nnc(-c2cccs2)n1C1CC1)c1ccccc1 (stereo unspecified)	-3	-2	102	101
46	O=C(O)Cc1nnc(-c2ccc3c(c2)OCO3)o1	-4	118	100	103
47	CN1C(=O)CSc2ccc(NC(=O)NCc3cccnc3)cc21	8	-2	105	104
48	CCc1cc2c(=O)oc(-c3ccc(Br)cc3)nc2s1	-14	-9	102	106
49	O=C(Nc1cc2c(s1)CCCC2)c1ccccc1	-3	-2	102	102
50	CC(C)=CC1C(C(=O)Nc2ccc(S(=O)(=O)N3CCOCC3)cc2)C1(C)C (stereo unspecified)	-51	-4	104	101
51	COc1cc(SC)ccc1C(=O)NCCCn1ccnc1	-2	.	103	106
52	CCCN1CC=C2C(C#N)(C#N)C(N)=C(C)[C@H](c3ccc(C(=O)OC)cc3)[C@@]2(C)C1	-19	.	102	159
53	COc1ccc(-c2nc3nc4ccccc4nc3n2CC2CCCO2)cc1 (stereo unspecified)	1	-82	.	.
54	CCC(CC)NC(=O)C1c2ccccc2Oc2ccccc21	-4	7	100	97
55	Fc1cccc(Cl)c1C=NCc1ccc(Cl)cc1	-16	-17	103	108
56	COc1ccc2[nH]c3c(=O)n(CCCCC(=O)NCc4ccccc4)c(=S)[nH]c3c2c1	-5	0	101	105
57	CN(C1CCCCC1)S(=O)(=O)c1ccc(S(=O)(=O)c2ccccc2)s1	-10	-8	105	113
58	CC(C)CC(NS(=O)(=O)c1ccc2c(c1)CCCC(=O)N2)C(=O)N1CCOCC1 (stereo unspecified)	-13	-22	102	103
59	Cc1ccccc1Cn1c(C)c(/C=C2\SC(N)=NC2=O)c2ccccc21	-39	-1	97	101
60	COC(=O)c1ccc(CSc2nc(-c3ccc(OC)cc3)ns2)o1	5	72	96	94
61	Cc1ccc(C(=O)c2ccc(Oc3ccccc3)cc2)cc1	-16	2	103	103
62	COC(=O)c1cc2sccc2n1Cc1ccc(Cl)cc1	-14	-9	101	102
63	COc1ccc(/C=C2\N=C(c3ccccc3)N(/N=C/c3cccnc3)C2=O)cc1	8	3	88	168
64	COc1ccccc1/C=C/C=N/NC(=O)c1cc(-c2ccco2)[nH]n1	-1	9	102	105
65	C=CCn1c(COc2cccc3cccnc23)nnc1SCCC(=O)O	5	-15	101	103
66	Cc1csc2nc(CCNC(=O)CC3CCCC3)cn12	-27	-5	103	113
67	Nc1nnc(CC(=O)N/N=C/c2cccs2)s1	-16	2	99	103
68	O=C(CSc1nc2c(c(=O)n1Cc1ccccc1)SCC2)NC1CCCC1	-1	9	101	94
69	CC(C)(C)CC(=O)NC1CCCCCCC1	-12	-2	100	101
70	CC(C)N(C(=O)CSc1nnc(NC2CC2)s1)c1ccccc1	-24	-5	108	112
71	Cc1nn2cc(Cl)nc2s1	-25	-11	103	104
72	COC(=O)c1cnc(N(C)C2CCCCC2)c2ccccc12	-19	-29	100	102
73	C#CCN1C(=O)S/C(=C/c2cc(C)n(-c3ccc(OC)cc3)c2C)C1=O	-65	-7	100	102
74	CCOC(=O)c1cc(C(=O)OC)c(C)nc1NCc1ccc2c(c1)OCO2	-17	-6	103	95
75	O=C(Nc1ccccc1C(F)(F)F)c1ccccn1	-10	9	104	111

Following part:
cpd	SMILES	Mtb MenB inh	Mtb MbtI inh	PV pol inh	PV pol inh intensity
76	COc1ccc(/C=c2\s/c(=C\C(=O)c3ccco3)[nH]c2=O)cc1O	-161	-37	141	194
77	CC1(C)CC2CC(C)(CN2S(=O)(=O)c2cccc(C(N)=O)c2)C1 (stereo unspecified)	9	-9	97	99
78	CCN(CC)C(=O)c1ccccc1Nc1ccc(SC(F)F)cc1	-8	5	104	113
79	COc1ccc(C(=O)N2CCN(C(=O)c3ccco3)CC2)cc1S(=O)(=O)NCCc1ccccn1	-11	-11	106	106
80	CSc1nsc(SCC(=O)C(C)(C)C)n1	-35	-12	101	103
81	O=C(Oc1ccc(OC(=O)c2ccco2)cc1)c1ccco1	4	.	103	108
82	Cc1ccc2[nH]c(=O)c(CN(Cc3ccccc3)C(=O)c3ccco3)cc2c1	34	18	102	102
83	Nc1ccccc1-c1n[nH]c(C2CC2)n1	-8	102	99	92
84	CN1/C(=C\C=N\NC(N)=S)C(C)(C)c2ccccc21	-245	14	101	102
85	O=C(O)CCn1ccccc1=O	-81	10	103	101
86	COc1ccc(NC(=O)CS(=O)CC(=O)Nc2ccc(NC(C)=O)cc2)cc1 (stereo unspecified)	-15	-8	103	102
87	COC(=O)c1sc2nc3c(c(C(F)(F)F)c2c1N)CN(C(C)=O)CC3	-64	-23	100	102
88	CC(=O)N1CC(=O)N=C1SCC(=O)Nc1nc2c(s1)CCCC2	-1	39	97	102
89	O=C1CNC(=S)N1CCC1=CCCCC1	-28	-3	104	109
90	O=C(CN1C(=O)c2ccccc2C1=O)NC1CCCCC1	5	-1	104	102
91	COc1cc2cc(C#N)c(SCC(=O)OC(C)C)nc2cc1OC	-58	-21	104	106
92	Cc1cc(NC(=O)c2cccc(Oc3ccccc3)c2)n[nH]1	1	-5	102	112
93	Cc1cc2oc(=O)cc(CN3CCCC(C)C3)c2cc1C(C)C (stereo unspecified)	15	-1	98	110
94	[O-]/[N+](=C/c1ccco1)c1ccccc1	-18	24	101	99
95	CCOC(=O)/C(C#N)=C\N1CCOCC1	-1	11	102	102
96	Cc1ccc(-n2ccnc(SCC(=O)NCc3ccco3)c2=O)cc1C	16	-84	99	103
97	CCCN1C(=O)/C(=c2\sc3n(c2=O)C(c2ccccc2)C(C(=O)OC)=C(C)N=3)c2ccccc21 (stereo unspecified)	11	-24	100	103
98	COc1cccc2c1NC1CC(C)CCC1C2(C)C (stereo unspecified)	-13	13	103	107
99	CC(C)NC(=O)CSc1n[nH]c(-c2ccncc2)n1	-14	9	106	114
100	CC(=O)O/N=C(\C)c1nccs1	3	4	102	105
101	COc1ccc(-c2cnc(N)n2CC2CCCO2)cc1 (stereo unspecified)	-81	10	103	101
102	CCOC(=O)N1CCC(NS(=O)(=O)c2ccc3[nH]c4c(c3c2)CCCC4)CC1	2	-9	103	103
103	CN(C)c1ccc(C2C3=C(CCCC3=O)Nc3[nH]c(=O)[nH]c(=O)c32)cc1 (stereo unspecified)	0	-7	101	106
104	COc1cc(C(=O)NC2CCS(=O)(=O)C2)cc(OC)c1OC (stereo unspecified)	-2	-8	101	102
105	NC(=O)CSc1nc2c(c(C(F)(F)F)n1)CCc1ccccc1-2	-15	5	102	104
106	Cc1ccc(C(=O)Nc2sc3c(c2C(=O)O)CCCC3)o1	-3	.	95	99
107	CCN1c2ccccc2NC2=C(C(=O)CC(C)(C)C2)C1c1ccccc1 (stereo unspecified)	-12	0	101	99
108	COc1ccc(-c2nnc(SC3CCOC3=O)n2-c2ccccc2)cc1 (stereo unspecified)	3	48	100	91
109	N#Cc1ccc(C(=O)N2CC=C(c3ccccc3)CC2)cc1	-11	-48	102	95
110	Cc1cc(C)cc(NC(=O)COC(=O)C2CCN(c3ccc(C(F)(F)F)cn3)CC2)c1	-29	41	102	102
111	Cn1c(CSc2nc3ncnc(N)c3[nH]2)nc2ccccc21	8	1	102	103
112	N#CCSc1nc2c(cc1C#N)CCCCC2	-71	78	103	99
113	COc1ccc2cc3c(NC(=O)Cc4cccc(C(F)(F)F)c4)n[nH]c3nc2c1	-20	-14	102	105
114	COc1ccc(-c2nnc(Nc3cccc(C(F)(F)F)c3)c3ccccc23)cc1	-3	40	99	103
115	CCOC(=O)C1CCCN(C(=O)CCCC(=O)n2ncc3cc(C)ccc32)C1 (stereo unspecified)	-22	5	106	109
